Rango dissoc inh: inhibition of RanGTP-driven Rango-importin beta dissociation; Biochemical FRET Rango-importin beta, RanGTP-induced dissociation; Potency, µM (doses to about 46.1 µM), without a hit: at the top dose activity change, negative = inhibition; hit rate 0.071% among 340,000; AID 540253; active means falling FRET ratio curve, often poorly fitted, with flat reads before Ran was added; inconclusive means other falling curves, or compound fluorescence or quenching; inactive means flat or rising ratio curve;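 note: potency is the fitted concentration of half-maximal effect; % of control where 0% means no effect; nearly all actives have a fitted effect of over 45% in size; -100% = wells without RanGTP and RCC1; the record marks most hits as doubtful in a second field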
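Rango/importin beta premix (0.1/0.25 uM final), PBS + 1 mM DTT + 0.02% Tween-20 + 0.1% BSA; cpd 5 min RT; FRET pre-read; + RanGTP-RCC1 (0.6 uM Ran, 2 mM GTP, 0.2 uM RCC1); 45 min RT; FRET post-read, ex 430, em 486/530 nm.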
miR-21 reporter: raises the signal of a miR-21 reporter; HeLa miR-21 FLuc reporter, luciferase, 48 h; Potency, µM (series often up to 38.3 µM), without a hit: top-dose reporter change, positive = more light; 340,000 tested, under 10 active; active = well fitted rising curve with a large enough effect; inconclusive = small, poorly fitted or top-dose-only effect; inactive = no such curve, though single readings can be large or run the other way;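 note: % of control where 0% means no effect; miR-21 action dims this reporter so a rising signal means less miR-21 action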
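Compounds were titrated across several concentrations (up to approximately 40 uM) and incubated 48 hours with HeLa miR-21-FLuc reporter cells (miR-21 target sequence downstream of FLuc, endogenous miR-21). Readout was firefly luciferase luminescence after lytic detection reagent.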
GLA inh pH 4.5: blocks human alpha-galactosidase A at pH 4.5; P06280; purified enzyme, 4-MU-alpha-Gal fluorescence, pH 4.5; activity change, negative = inhibition, % at 105 µM; 230,000 tested, under 10 active; AID 1467; inconclusive = small, poorly fitted or top-dose-only inhibition, or a rising curve; inactive = flat fitted curve, though single readings scatter; no compound was filed as active;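 note: 0% = full activity with enzyme and -100% = basal without enzyme; dose as in the result columns while the protocol names 77 µM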
Target sequence (P06280 whole entry, looked up): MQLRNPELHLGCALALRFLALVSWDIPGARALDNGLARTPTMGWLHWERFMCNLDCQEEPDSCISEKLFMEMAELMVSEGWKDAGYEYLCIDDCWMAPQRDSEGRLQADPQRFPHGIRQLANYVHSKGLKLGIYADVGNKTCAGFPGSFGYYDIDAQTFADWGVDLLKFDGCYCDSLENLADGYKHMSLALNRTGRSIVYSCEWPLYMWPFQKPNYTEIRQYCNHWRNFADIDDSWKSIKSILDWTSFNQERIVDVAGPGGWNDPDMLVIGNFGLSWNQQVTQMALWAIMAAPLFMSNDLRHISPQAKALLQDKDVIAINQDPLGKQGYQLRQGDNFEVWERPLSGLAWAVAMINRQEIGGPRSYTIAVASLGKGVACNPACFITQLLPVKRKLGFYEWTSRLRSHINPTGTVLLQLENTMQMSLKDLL
Rango complex inh: Rango-importin beta binding inhibition. Potency, µM (titrated, usually from 92.2 µM), for inactives: at the highest dose inhibition of complex formation. Rango CFP/YFP FRET sensor + importin beta, 45 min. AID 540263. hit rate 0.031% among 340,000. Q14974; active = rising FRET ratio curve, often small or poorly fitted; inconclusive = mostly compound fluorescence or quenching in the first reads; inactive = flat curves in all reads;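 note: potency is the fitted concentration of half-maximal effect; 0% = DMSO wells and 100% = buffer wells lacking importin beta; nearly all actives have a fitted effect of over 15% in size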
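FRET biosensor Rango (snurportin 1 IBB between N-terminal EYFP and C-terminal Cerulean), 50 nM in PBS/1 mM DTT/0.02% Tween-20/0.1% BSA, preincubated 5 min RT with compound; 0.125 microM importin beta added, 45 min RT, CFP/YFP FRET ratio read.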
* hit, by the source's call; ? = inconclusive; / = no result given; [ ] = remark or other dose. The list is partial, so the mix of outcomes need not match the whole.

entry | Molecule | Rango dissoc inh | miR-21 reporter | Rango complex inh | GLA inh pH 4.5
1 | COC(=O)C1=CN(Cc2ccccc2)C=C(C(=O)OC)C1c1ccc(O)c(OC)c1 | 2.1% | 8.1% | ? | /
2 | CN(C)C(CN=C1NS(=O)(=O)c2ccccc21)c1ccco1 (stereo not drawn) | -27.6% | 0.2% | ? | 6.6
3 | CCC(C(=O)Nc1ncn[nH]1)(C(F)(F)F)C(F)(F)F | 21.4% | -7.4% | -0.4% | -23.2
4 | CC1(C)COC(c2cc([N+](=O)[O-])ccc2Cl)=N1 | 1.2% | -1.2% | -1.7% | 0.9
5 | COc1ccc(S(=O)(=O)N(C)C[C@H]2Oc3ccc(NC(=O)Nc4ccc5c(c4)OCO5)cc3C(=O)N([C@H](C)CO)C[C@@H]2C)cc1 | -4.4% | / | -0.3% | /
6 | CSc1ncnc2ncn(C)c12 | 8.2% | / | -2.4% | /
7 | COc1ccc(-c2noc(CCC(=O)Nc3cccnc3)n2)cc1 | 0.4% | -2.5% | 2.7% | /
8 | COc1ccc(OCCCn2c(=O)oc3ccccc32)cc1 | 12.8% | -33.2% | 0.8% | -1.5
9 | O=C(NNC(=S)NC1CC2CCC1C2)c1ccc(Cl)cc1 (stereo not drawn) | -5.8% | -5.1% | 0.7% | -13.7
10 | Cc1cccc(-c2nnc(SCC(=O)NC3CC3)n2C)c1 | 16.6% | 10.4% | -1.7% | /
11 | Cc1ccc(NC(=O)CN2CCOCC2)cc1S(=O)(=O)N1CCCCC1 | -6.2% | / | -1.6% | /
12 | COc1ccc(-c2cc(O)cc(O)c2)cc1 | -5.4% | -33.0% | -1.6% | -3.5
13 | CC1(C)SC(=S)N(Cc2ccc3c(c2)OCO3)C1N(O)C(=O)NC1CCCCC1 (stereo not drawn) | -15.2% | 3.4% | -2.5% | -0.7
14 | Cc1ccc(CCN2CC(C(=O)NCc3ccco3)CC2=O)cc1 (stereo not drawn) | 0.0% | -5.9% | 2.4% | 0.2
15 | COc1ccccc1NS(=O)(=O)c1cccc(C(=O)NNC(=O)c2ccc(NC(C)=O)cc2)c1 | -14.0% | / | -0.6% | /
16 | O=S1(=O)[C@H]2C[C@@H]3C=C[C@@]2(CN1Cc1cccc(C(F)(F)F)c1)O3 | -18.9% | -3.5% | -0.8% | /
17 | Cc1cccc(NC(=S)NCC23C=CC(O2)C2C(=O)N(c4ccc(Cl)cc4)C(=O)C23)c1 (stereo not drawn) | -7.6% | -2.5% | 0.3% | -5.2
18 | CN1CCC(N(C)C(=O)c2cccc(S(=O)(=O)N3CCc4ccccc43)c2)CC1 | -9.2% | / | 0.1% | /
19 | CCOc1ccc(-n2nnnc2SCC(=O)c2ccccc2)cc1 | -13.2% | -11.1% | -0.2% | 1.3
20 | CC(=O)c1cc(C#N)c(NCc2ccccc2)nc1C | 1.3% | -39.1% | 0.3% | -0.5
21 | COc1ccc(N2C(=O)CSC23CCC(C(C)(C)C)CC3)cc1 (stereo not drawn) | -22.1% | -0.5% | 3.2% | -5.6
22 | CC1(C)CC(=O)C2=C(C1)Nc1ccccc1[S@]2=O | -12.0% | 0.3% | 3.9% | 1.8
23 | O=C(COc1ccc([N+](=O)[O-])cc1)Nc1ccc(NC(=O)c2ccccc2)cc1 | 8.4% | -6.6% | 0.3% | /
24 | CCOC(=O)c1ccc(NC(=S)N(CCCN2CCCC2)Cc2ccco2)cc1 | 20.5% | -18.0% | -1.6% | 8.6
25 | O=C(NCc1cccnc1)c1cc2nc(-c3cccs3)cc(C(F)(F)Cl)n2n1 | -16.5% | 0.2% | ? | 1.8
26 | CCc1cc(SC#N)ccc1N | -4.1% | 4.1% | 2.7% | -5.1
27 | NC(=O)COC(=O)[C@H](Cc1c[nH]c2ccccc12)NC(=O)c1ccc(F)cc1 | 8.1% | 0.2% | -1.8% | /
28 | O=C1Nc2cc(C(=O)N3CCN(Cc4ccccc4)CC3)ccc2SC1N1CCOCC1 (stereo not drawn) | -11.3% | -1.8% | -2.9% | -4.9
29 | CC(C)(C)C(=O)NCc1ccc(C(=O)CN2C(=O)NC3(CCCC3)C2=O)s1 | -7.3% | / | 3.8% | /
30 | CC(c1nc2ccccc2c(=O)[nH]1)N(C)c1ccc2ccccc2c1 (stereo not drawn) | -6.0% | 3.3% | -2.8% | -12.7
31 | COc1ccc2oc(=Nc3cccc(F)c3)c(C(N)=O)cc2c1 | 2.6% | -41.0% | ? | -24.1
32 | CCNCCC(=O)N1c2ccccc2Sc2ccc(C(F)(F)F)cc21 | -7.4% | -7.3% | 3.3% | /
33 | CN(Cc1ccccc1)C(=O)c1cccc(N2C(=O)C3CC=CCC3C2=O)c1 (stereo not drawn) | -10.8% | 2.0% | -0.9% | /
34 | O=C(O)C1CCN(S(=O)(=O)c2ccc(N3CCCC3C(=O)O)c([N+](=O)[O-])c2)CC1 (stereo not drawn) | -20.3% | 2.1% | -2.8% | /
35 | NC(=O)C[C@@H]1N[C@]2(C(=O)Nc3ccccc32)[C@@H]2C(=O)N(C3CCCCC3)C(=O)[C@H]12 | 14.5% | -1.4% | -4.6% | 1.9
36 | O=C(CSc1nn(-c2ccccc2)c(=S)s1)Nn1cnnc1 | -4.2% | -3.2% | -3.6% | 7.9
37 | CC(NC(=O)C(=O)NCCCn1ccnc1)c1ccccc1 (stereo not drawn) | -1.7% | -1.9% | 0.3% | 4.5
38 | CCOc1cc(/C=N/NC(=O)c2cccnc2)ccc1OCc1ccc(C(=O)OC)o1 | -2.4% | 1.1% | -0.2% | 4.5
39 | N#CC1=C2SCC(O)(c3ccccc3)N2C(=O)CC1c1ccccc1 (stereo not drawn) | -6.1% | 19.6% | -2.9% | 19.5
40 | COc1ccc(CN(C)S(=O)(=O)c2nnc(NC(=O)c3ccc(C)cc3)s2)cc1OC | 31.9% | -0.7% | -5.3% | /
41 | Nc1nnc(SCC(=O)OCc2ccc(F)cc2)s1 | 6.8% | -1.0% | -4.4% | -1.7
42 | C/C(=N\NC(=O)C(c1ccccc1)c1ccccc1)c1ccc(O)cc1 | 7.8% | -0.7% | 1.6% | /
43 | CCOC(=O)c1[nH]c2ccc(OC)cc2c1NC(=O)NC(C)C | 0.2% | -3.5% | -0.1% | 6.1
44 | Cc1nnc(SCc2ccccc2)n1N | 18.9% | 0.2% | -3.8% | 8.4
45 | O=C(Nc1ccc(Cc2ccncc2)cc1)c1cccs1 | 17.3% | -22.5% | ? | 4.1
46 | COc1ccc(S(=O)(=O)N2CCC(C(=O)Nc3ccc(OC)c(OC)c3)CC2)cc1C | 1.3% | / | -0.1% | /
47 | CSCC(=O)N1CCC(n2nccc2NC(=O)CCCc2ccccc2)CC1 | 3.7% | -20.4% | 5.4% | /
48 | CCCC(=O)Nc1ccc(N2CCN(C(=O)c3ccccc3C)CC2)cc1 | 36.2% | -0.1% | 4.5% | -2.4
49 | O=C1CSCC(=O)N1c1ccccc1 | 6.2% | 1.9% | -0.4% | -3.1
50 | C=CCN(c1ccccc1)S(=O)(=O)c1ccc2c(c1)NC(=O)C(C)C(=O)N2 (stereo not drawn) | 43.1% | 8.5% | 0.1% | /

Reprinted from the part before: two compounds, followed by the next part.
entry | Molecule | Rango dissoc inh | miR-21 reporter | Rango complex inh | GLA inh pH 4.5
49 | O=C1CSCC(=O)N1c1ccccc1 | 6.2% | 1.9% | -0.4% | -3.1
50 | C=CCN(c1ccccc1)S(=O)(=O)c1ccc2c(c1)NC(=O)C(C)C(=O)N2 (stereo not drawn) | 43.1% | 8.5% | 0.1% | /
51 | O=C(CN1C(=O)COc2ccccc21)Nc1ccc2c(c1)OCCO2 | -7.6% | -13.8% | 0.6% | 5.1
52 | CCCCN(CC)C(=O)C1CCCN(S(=O)(=O)c2cccc3nsnc23)C1 (stereo not drawn) | -3.3% | 15.5% | 0.1% | /
53 | O=C(Cc1ccccc1[N+](=O)[O-])NCc1ccccc1Cl | -7.3% | -38.0% | 2.9% | 8.8
54 | Cc1nn(C(=O)c2ccco2)c(C)c1Sc1ccc(Br)cc1 | -0.1% | 1.2% | 0.1% | 2.9
55 | Cc1cccnc1NC(=O)c1cc2c(=O)oc3ccccc3c2s1 | -4.4% | -8.3% | ? | 3.5
56 | CCOCCCn1c(=S)[nH]c2cc(C(=O)NCc3ccc(F)cc3)ccc2c1=O | -2.2% | -0.2% | -0.2% | /
57 | O=C1[C@@H]2C(Cc3ccc(O)cc3)NC3(C(=O)Nc4ccc(F)cc43)[C@@H]2C(=O)N1c1ccccc1 (stereo partly drawn) | 28.9% | -2.3% | -1.9% | 6.9
58 | Cc1ccc(N2CC(C(=O)NCCc3ccc(S(N)(=O)=O)cc3)CC2=O)cc1 (stereo not drawn) | 0.5% | 0.7% | -3.4% | -8.0
59 | COc1ccc(N2CCN(C3CCCCC3NS(=O)(=O)c3ccccc3)CC2)cc1 (stereo not drawn) | 22.7% | 6.6% | 5.4% | /
60 | O=C(CCCN1C(=O)C2CC=CCC2C1=O)Nc1cccc(F)c1 (stereo not drawn) | 8.9% | -3.7% | -1.8% | /
61 | CCC(C)N(C(=O)COC(=O)c1cc([N+](=O)[O-])ccc1N)C1CCS(=O)(=O)C1 (stereo not drawn) | 15.9% | -8.2% | 0.0% | /
62 | COc1ccccc1NC(=O)C1Cc2ccccc2CN1C(=O)c1ccco1 (stereo not drawn) | -5.3% | -13.2% | -1.3% | /
63 | CC/C(Cc1ccccc1)=N/NC(=O)c1cccc(Br)c1 | 9.9% | -35.3% | -3.2% | 2.7
64 | COc1cc(/C=N/n2c(-c3cc(C)[nH]n3)n[nH]c2=S)cc(OC)c1OC | -11.2% | -0.5% | 1.4% | -8.4
65 | COc1ccc(CN(C(=O)c2ccco2)c2ccccc2)cc1 | -13.6% | -14.1% | -1.4% | -4.7
66 | O=C(CC1S/C(=N/N=C2CCCCCC2)NC1=O)Nc1ccccc1C(F)(F)F (stereo not drawn) | -8.0% | -5.0% | -0.4% | /
67 | CCCc1nn(C)c(C(=O)Nc2ccc(CC)cc2)c1Cl | 18.9% | -31.5% | 4.9% | -0.3
68 | COc1ccc(NS(=O)(=O)c2ccc(NC(=O)c3ccccc3Br)cc2)nn1 | 0.6% | 0.0% | 1.1% | 5.6
69 | Cc1cc(C)n(-c2cc(Cl)cc(Cl)c2)c(=O)c1C#N | -3.3% | -6.7% | 0.6% | -9.3
70 | S=c1[nH]nc(COc2ccccc2)n1/N=C/c1ccccc1Br | -4.7% | -7.8% | 0.5% | /
71 | CCN1C=C(C(=O)c2ccccc2)C(=O)CC1 | -1.4% | / | -0.5% | /
72 | Cc1nc(-c2ccc(C(=O)Nc3ccc(F)cc3)cc2)cs1 | 0.7% | -35.1% | -3.1% | 4.1
73 | NC(=Nc1ccccc1)NC(=O)c1nc(Cl)c(N)nc1N | -4.4% | / | ? | -2.4
74 | CCc1cc(=O)oc2c(CNCc3ccccc3F)c(O)c(Cl)cc12 | ? | -4.2% | 5.2% | /
75 | CCCCN(CC)CCNC(=S)Nc1ccc2nc(N3CCN(C)CC3)cc(C)c2c1 | 0.7% | -2.2% | 1.9% | /
76 | COc1ccc(-c2ccc(CCC(=O)O)n2-c2ccc(O)cc2)cc1 | ? | 1.5% | ? | 3.4[21.1 µM]
77 | CNCc1ccccc1Sc1ccc(OC)cc1 | 13.2% | -6.9% | ? | -0.6
78 | Cc1ccc(CNc2ncc(-c3ccccc3)n2C)o1 | 5.2% | -18.1% | -0.5% | -4.1
79 | Cc1ccc(SCCN2CCN(C)CCC2=O)cc1 | 3.2% | -34.3% | 2.1% | 9.3
80 | CC(=O)c1c(C)[nH]c(C(=O)CN2C(=O)NC(C)(c3ccc4c(c3)OCO4)C2=O)c1C (stereo not drawn) | 5.5% | 4.2% | -4.0% | /
81 | COc1cc(NC(=O)c2ccc(OCc3c(C)noc3C)c(OC)c2)cc(OC)c1 | 0.6% | / | 0.3% | /
82 | CCn1cc(CN2CCC(n3nccc3NC(=O)c3ccc4c(c3)OCO4)CC2)c(C)n1 | -18.1% | 0.0% | 1.3% | /

Source: PubChem (National Center for Advancing Translational Sciences (NCATS))
